Cruzain noTriton: inhibitors of Trypanosoma cruzi cruzain without detergent. P25779. purified cruzain, Z-FR-AMC fluorescence, no detergent. Potency, µM, without a hit: max response, negative = inhibition, most hits filed as inhibitors. 200,000 compounds, 2.3% hits; active = well fitted curve in the direction sought with a large enough effect; inconclusive = small, poorly fitted or top-dose-only effect, or another doubt; inactive = no such curve, though single readings can be large; an effect the other way counts as inactive or inconclusive;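 note: plate controls were enzyme without inhibitor for no effect and buffer without enzyme for full effect; nearly all actives have a fitted effect of over 40% in size; top concentration of the series not given in the record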
Target sequence (P25779 123-467 limits assumed): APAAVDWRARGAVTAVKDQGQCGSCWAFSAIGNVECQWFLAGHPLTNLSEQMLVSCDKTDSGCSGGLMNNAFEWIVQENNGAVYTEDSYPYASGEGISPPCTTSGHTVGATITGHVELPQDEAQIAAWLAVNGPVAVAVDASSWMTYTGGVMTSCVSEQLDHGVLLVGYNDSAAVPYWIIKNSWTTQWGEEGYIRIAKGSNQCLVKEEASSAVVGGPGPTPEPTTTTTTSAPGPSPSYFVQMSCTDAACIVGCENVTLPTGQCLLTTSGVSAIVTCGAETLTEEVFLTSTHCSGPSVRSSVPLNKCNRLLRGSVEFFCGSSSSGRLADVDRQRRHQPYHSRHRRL
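Detergent-free condition (0.00005% Triton X-100) in acetate buffer pH 5.5 with DTT. 1.5 nM enzyme and compound were pre-mixed 15 min, then 2 uM Z-FR-AMC substrate added; reaction progress from fluorescence change between first and third reads (60 s).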
Cruzain Triton: cruzain (T. cruzi) inhibition with detergent; 200,000 compounds, 0.43% hits; Potency, µM, without a hit: max response, negative = inhibition, most hits filed as inhibitors; AID 1478; P25779; purified cruzain, Z-FR-AMC fluorescence, 0.01% Triton; active = well fitted curve in the direction sought with a large enough effect; inconclusive = small, poorly fitted or top-dose-only effect, or another doubt; inactive = no such curve, though single readings can be large; an effect the other way counts as inactive or inconclusive;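 note: plate controls were neutral wells for no effect and buffer without enzyme for full effect; nearly all actives have a fitted effect of over 40% in size; top concentration of the series not given in the record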
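15 min RT preincubation of 1.5 nM cruzain with compound, then 2 uM Z-FR-AMC added; kinetic AMC fluorescence, 60 s delta. Triton X-100 0.01%, pH 5.5.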
RE007 growth inh: less growth of the S. pombe RE007 Vpr strain; S. pombe RE007 Vpr strain, BacTiter-Glo ATP luminescence, 24 h; control for the full effect not named in the record; Potency, µM (titrated, usually from 92.2 µM), for the others: at the highest dose activity change, negative = less growth; 360,000 compounds, 0.21% hits; active = well fitted falling curve with a large enough effect; inconclusive = small, poorly fitted or top-dose-only effect; inactive = no such curve, though single readings can be large or run the other way;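 note: % is set by controls: 0 for no effect and ±100 for the full control effect; nearly all actives have a fitted effect of over 50% in size; the assay follows cell death caused by Vpr and the record does not say whether a fall means rescue or toxicity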
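Fission yeast strain RE007, carrying one chromosomally integrated HIV-1 vpr copy, was seeded at OD 0.01 in PMG+AL medium with 23 nL pinned compound. After 24 h at 30 °C and 99% humidity, viability was read by BacTiter-Glo luminescence.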
SARS PLpro yeast: inhibitors of SARS-CoV papain-like protease in yeast. Potency, µM (series often up to 32.9 µM), without a hit: at the highest dose activity, positive = growth rescue. 330,000 compounds, 0.19% hits. S. cerevisiae expressing SARS-CoV PLpro, growth rescue; control for the full effect not named in the record; note: 0% is about no effect; nearly all actives have a fitted effect of over 55% in size; growth read by luminescence after 48 h
StopGo reporter: FMDV 2A StopGo reporter, luciferase signal | 410,000 compounds, 1.2% hits | AID 1159524 | Potency, µM (titrated, usually from 57.9 µM), inactives show top-dose signal change, negative = less light | human cells with a luciferase reporter of 2A StopGo recoding; control for the full effect not named in the record; active = well fitted falling curve with a large enough effect; inconclusive = small, poorly fitted or top-dose-only effect; inactive = no such curve, though single readings can be large or run the other way; tested in HEK293T cells; note: % is set by controls: 0 for no effect and ±100 for the full control effect; nearly all actives have a fitted effect of over 45% in size; luciferase light after 4 h
Marburg entry inh: inhibitors of Marburg virus binding or cell entry | Marburg virus pseudotyped entry inhibition, cell reporter; control for the full effect not named in the record; about a third of the inactives were read at about 46 µM | Potency, µM (highest dose often 37.8 µM), inactives show at the highest dose activity change, negative = inhibition, usual class: inhibitors | 300,000 compounds, 1.8% hits; active = well fitted inhibition curve with a large enough effect; inconclusive = small, poorly fitted or top-dose-only effect, or effect the other way; inactive = flat fitted curve, though single readings scatter; tested in HEK293 cells; about a fifth of its hits are not listed in these tables; note: % is set by controls: 0 for no effect and ±100 for the full control effect; luciferase read-out
NS1 inh: blocks influenza NS1 protein function; S. cerevisiae slowed by influenza A NS1, growth recovery by OD600; 270,000 compounds, 0.4% hits; Potency, µM (series often up to 46.1 µM), inactives show top-dose activity, positive = more growth; note: actives are rising curves; nearly all actives have a fitted effect of over 50% in size
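OD600 was taken as the measure of yeast growth restored by compound in an NS1-expressing S. cerevisiae strain. Cells had been washed out of glucose medium and diluted 1:100 into galactose -URA medium, pH 6.0.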
Lassa entry inh: blocks Lassa virus binding to or entry into cells. Lassa virus pseudotype entry inhibition, cell reporter; control for the full effect not named in the record. 300,000 compounds, 1.2% hits. Potency, µM (titrated, usually from 37.9 µM), without a hit: at the highest dose activity change, negative = inhibition, usual class: inhibitors. AID 540256; active means well fitted inhibition curve with a large enough effect; inconclusive means small, poorly fitted or top-dose-only effect, or effect the other way; inactive means flat fitted curve, though single readings scatter; tested in HEK293 cells; note: % is set by controls: 0 for no effect and ±100 for the full control effect; nearly all actives have a fitted effect of over 50% in size; luciferase read-out
Starred values were filed as active, the others as inactive; ? = inconclusive; · = no result given; [ ] = remark or other dose. Unless noted, calls come from the whole dose curve; as a rule, active means well fitted rising curve with a large enough effect; inconclusive means small, poorly fitted or top-dose-only effect; inactive means no such curve, though single readings can be large or run the other way. Potency is the fitted concentration of half-maximal effect.

Start of the data: the first nine entries, ahead of the listing:
Second line of a record: Cruzain noTriton	NS1 inh	Marburg entry inh	StopGo reporter	SARS PLpro yeast	Cruzain Triton	RE007 growth inh	Lassa entry inh
> O=C(CN(CCO)c1ccccc1)Nc1ccc(Cl)c(S(=O)(=O)N2CCOCC2)c1
    ·	·	-3%[46.1 µM]	4%	0%	·	14%	-3%[46.1 µM]
> Cc1ccc(-c2cc(C(F)(F)F)n3nc(C(=O)Nc4c(C)n(C)n(-c5ccccc5)c4=O)cc3n2)cc1
    ?	7%	?	?	-3%	-3.9%	-6%	?
> Cc1ccc(CNC(=O)C2C3C=CC(C3)C2C(=O)O)cc1 (configuration not stated)
    4%	3%	7%	-15%	-3%	13%	0%	0%
> COc1cccc(C(=O)NCc2cn3ccsc3n2)c1
    -16%	3%	·	15%	1%	0.6%	-2%	·
> COc1ccc(-c2nc(CS(=O)CC(=O)N3CCN(C)CC3)c(C)o2)cc1OC (configuration not stated)
    ·	4%	?	12%	1%	·	-6%	19%[46.1 µM]
> CC(=O)Nc1nnc(COc2ccc(Cl)cc2)s1
    ·	·	-4%	41%[activator]	2%	·	14%	?
> O=C(CSc1n[nH]c(=O)n1C1CC1)Nc1ccc(F)c(Cl)c1
    ·	·	-1%[46.1 µM]	-6%	7%	·	4%	-18%[46.1 µM]
> Cc1ccccc1-c1nc(SCC(=O)NCC2CCCO2)c2c(=O)n(C)c(=O)n(C)c2n1 (configuration not stated)
    16%	·	·	-10%	·	2.9%	·	5%[46.1 µM]
> COc1ccc(-c2c3c(=O)n(C)c(=O)n(C)c3cn2-c2cccc(OC)c2)cc1
    ?	-19%	-18%	·	1%	-3.3%	10%	-24%

Main list (from the top)
Second line of a record: Cruzain noTriton	NS1 inh	Marburg entry inh	StopGo reporter	SARS PLpro yeast	Cruzain Triton	RE007 growth inh	Lassa entry inh
> O=C(CN(CCO)c1ccccc1)Nc1ccc(Cl)c(S(=O)(=O)N2CCOCC2)c1
    ·	·	-3%[46.1 µM]	4%	0%	·	14%	-3%[46.1 µM]
> Cc1ccc(-c2cc(C(F)(F)F)n3nc(C(=O)Nc4c(C)n(C)n(-c5ccccc5)c4=O)cc3n2)cc1
    ?	7%	?	?	-3%	-3.9%	-6%	?
> Cc1ccc(CNC(=O)C2C3C=CC(C3)C2C(=O)O)cc1 (configuration not stated)
    4%	3%	7%	-15%	-3%	13%	0%	0%
> COc1cccc(C(=O)NCc2cn3ccsc3n2)c1
    -16%	3%	·	15%	1%	0.6%	-2%	·
> COc1ccc(-c2nc(CS(=O)CC(=O)N3CCN(C)CC3)c(C)o2)cc1OC (configuration not stated)
    ·	4%	?	12%	1%	·	-6%	19%[46.1 µM]
> CC(=O)Nc1nnc(COc2ccc(Cl)cc2)s1
    ·	·	-4%	41%[activator]	2%	·	14%	?
> O=C(CSc1n[nH]c(=O)n1C1CC1)Nc1ccc(F)c(Cl)c1
    ·	·	-1%[46.1 µM]	-6%	7%	·	4%	-18%[46.1 µM]
> Cc1ccccc1-c1nc(SCC(=O)NCC2CCCO2)c2c(=O)n(C)c(=O)n(C)c2n1 (configuration not stated)
    16%	·	·	-10%	·	2.9%	·	5%[46.1 µM]
> COc1ccc(-c2c3c(=O)n(C)c(=O)n(C)c3cn2-c2cccc(OC)c2)cc1
    ?	-19%	-18%	·	1%	-3.3%	10%	-24%
> CC(C)[C@H](NC(=O)N1CC(=O)Nc2ccccc21)C(=O)N[C@@H](C(=O)O)c1ccccc1
    ·	6%	12%[46.1 µM]	5%	-3%	·	0%	-4%[46.1 µM]
> COC(=O)c1ccc(NC(=O)CC(=O)Nc2ccc(C(=O)OC)cc2)cc1
    ·	6%	·	-20%	6%	·	-16%	·
> Cc1cc(C)c2oc(-c3cc(NC(=O)Cc4ccccc4)ccc3Cl)nc2c1
    -21%	·	7%[46.1 µM]	6%	·	-0.2%	·	-10%[46.1 µM]
> O=C(c1ccc2c(=O)n(Cc3ccc4c(c3)OCO4)c(=O)[nH]c2c1)N1CCN(c2ccccc2)CC1
    ·	10%	·	-13%	-5%	·	12%	·
> CCOc1ccc(OCC)c(-c2c(=O)n(OCc3ccc(C(C)(C)C)cc3)c3ccccc3[n+]2[O-])c1
    0%	5%	?	-9%	1%	-7.3%	3%	-4%
> CCN(C(=O)c1cccc(Br)c1)c1ccccc1
    10%	-12%	3%	-20%	-14%	-0.4%	7%	-20%
> COc1ccc(C2=NC(C)(C)Cc3cc(OC)c(OC)cc32)cc1OC
    ·	-8%	·	-10%	-6%	·	5%	·
> CCc1ccc(O)c(N=Cc2cccc(C)c2O)c1
    -12%	-4%	6%	48%[activator]	-11%	-6.2%	?	-22%
> O=C(NCCc1ccc(C(F)(F)F)cc1)C1CCC(=O)N(CCCN2CCCC2=O)C1 (configuration not stated)
    ·	-20%	·	4%	-5%	·	-9%	·
> Cc1ccccc1CC1(CO)CCCN(C(=O)c2cccc(Cl)c2)C1 (configuration not stated)
    ·	-1%	·	63%[activator]	0%	·	1%	·
> CCOC(=O)C1(CC/C(C)=N\NC(N)=O)CC(C)OC1=O (configuration not stated)
    2%	8%	4%	9%	13%	-1.5%	16%	-1%
> c1ccc(OCCCc2nc(-c3ccccn3)no2)cc1
    0%	-10%	-9%	4%	-8%	-0.7%	-14%	3%
> COc1ccc(-c2c(C)nn3c(-c4ccccc4)cc(-c4ccccc4)nc23)cc1OC
    -2%	·	25%[46.1 µM]	0%	·	4.3%	·	22%[46.1 µM]
> COc1ccc(CCNC(=O)C(=O)NCC2OCCN2S(=O)(=O)c2ccc(Cl)cc2)cc1OC (configuration not stated)
    ·	5%	·	?	7%	·	-7%	·
> Cc1nnc(SCC(=O)N2c3ccccc3C(C)(c3ccccc3)CC2(C)C)s1 (configuration not stated)
    -1%	-15%	?	40µM*	-48%	-4.3%	-7%	?
> Cc1nn(CC#N)c(=O)n1-c1ccccc1F
    -5%	4%	9%	5%	-4%	2.8%	11%	13%
> COc1ccc(CCNC(=O)/C=C/c2ccco2)cc1OC
    ·	7%	2%	1%	7%	·	-14%	5%
> COc1cccc(NC(=O)Cn2c(CCC(=O)O)ccc2-c2cccs2)c1
    ·	·	-4%[46.1 µM]	-5%	1%	·	6%	4%
> Cc1ccc(OCC(=O)N2CCC3(CC2)CC(=O)c2ccccc2O3)cc1
    ·	·	-18%[46.1 µM]	-17%	0%	·	-12%	4%
> C=CCN1C(=O)/C(=C/c2cc(C)n(-c3cccnc3)c2C)C(=O)NC1=S
    ?	?	32%	35µM*	0%	-13%	-21%	1%
> O=c1cc(-c2ccccc2)c2c(O)cc(O)cc2o1
    ·	4%	·	-14%	-4%	·	1%	·
> COc1ccc(CCNC(=O)C(=O)NCC2OCCN2S(=O)(=O)c2ccc(C)cc2)cc1OC (configuration not stated)
    ·	-18%	·	?	4%	·	-1%	·
> CCC1(C)Cc2c(C#N)c(N)n(-c3ccccc3)c(=O)c2CO1 (configuration not stated)
    -8%	-8%	13%	21%	-1%	3.1%	5%	-4%
> O=C(C1CCC1)N1CCN(S(=O)(=O)c2ccc(Br)cc2Cl)CC1
    ·	·	-2%	?	0%	·	4%	?
> O=C(C1CCCN(Cc2ccccc2Cl)C1)N1CCCCC1 (configuration not stated)
    ·	3%	·	-4%	0%	·	-22%	·
> COc1ccc(CCNc2nc(SCc3cccc(F)c3)nc3ccccc23)cc1OC
    11%	·	·	0%	·	2.8%	·	?
> CC(Nc1cccnc1)=C(C#N)C#N
    ·	10%	·	12%	2%	·	-3%	·
> CCCCCC(=O)N1CCN(S(=O)(=O)c2ccc3c(c2)OCCO3)CC1
    ·	·	?	-10%	4%	·	-15%	-17%
> O=C(Nc1ccc2oc(-c3ccc4ccccc4c3)nc2c1)c1ccc2c(c1)OCCO2
    10µM*	-2%	?	13%	-4%	-2.6%	15%	?
> CCn1nnc(NC(=S)NC(=O)c2ccc(-c3cccc(Cl)c3)o2)n1
    ·	-40%	?	-19%	-7%	·	-20%	-27%
> CCOC(=O)c1ccc(NC(=O)c2ccc(OC(C)C)c(OC)c2)cc1
    ·	-7%	?	40µM*	-1%	·	4%	-34%
> COc1cc(CCC(=O)N2CC(C)OC(C)C2)cc(OC)c1OC (configuration not stated)
    ·	9%	-8%[46.1 µM]	18%	-6%	·	11%	11%[46.1 µM]
> CC1=C(C(=O)Nc2ccccc2)C(c2ccco2)NC(=O)N1 (configuration not stated)
    ·	·	10%	-21%	·	·	4%	0%
> COC(=O)c1cccc(Nc2cc(C)nc(-c3ccccc3O)n2)c1
    8%	15%	?	-16%	-25%	-7.6%	-24%	-22%
> O=C(NC1CCS(=O)(=O)C1)/C(=C\c1ccco1)NC(=O)c1ccccc1 (configuration not stated)
    ·	6%	-1%[46.1 µM]	-13%	0%	·	-14%	10%[46.1 µM]
> O=C(NCC1CCCO1)c1ccc(NS(=O)(=O)c2cccc([N+](=O)[O-])c2)cc1 (configuration not stated)
    ·	·	14%[46.1 µM]	-9%	-2%	·	-4%	-2%[46.1 µM]
> O=C(Nc1ccccc1F)c1cc2c(s1)-c1ccccc1S(=O)(=O)C2
    ·	3%	·	-4%	-3%	·	1%	·
> CCOC(=O)N1CCc2c(sc3nc(SC(C)C)n(N)c(=O)c23)C1
    8%	10%	?	-29%	-3%	-10%	?	-13%
> COCCN1C(=O)C(=O)/C(=C(/O)c2ccc3c(c2)OCCO3)C1c1ccc(C(=O)OC)cc1 (configuration not stated)
    -12%	7%	0%	14%	-2%	-5.2%	10%	0%
> O=C(NC1CCCC1)C1CCN(C(=O)c2ccc(-c3ccccc3)cc2)CC1
    ·	-7%	21%[46.1 µM]	0%	1%	·	15%	?

Screening results from PubChem BioAssay.
